Bioassay records deposited in PubChem BioAssay by The Scripps Research Institute Molecular Screening Center.
LYPLA2 inh = blocks human lysophospholipase 2, a PME1 counter-screen; O95372; AID 2177; hit rate 0.38% among 320,000; inhibition, % at 5.9 µM; recombinant LYPLA2, FP-Rh probe fluorescence polarization;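 active = inhibition above the screen-wide mean plus 3 SD, limit set per campaign, cut at about 26% in these data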;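 note: 0% = LYPLA2 with DMSO and 100% = wells lacking LYPLA2 enzyme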
PAFAH1B3 inh = inhibitors of human PAFAH1B3; Q15102; AID 492972; inhibition, % at 3.39 µM; recombinant PAFAH1B3, FP-rhodamine probe, fluorescence polarization; hit rate 0.28% among 340,000;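 active = inhibition above the screen-wide average of all tested compounds plus 3 SD, cut at about 25% in these data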;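 note: 0% = enzyme with DMSO only and 100% = wells lacking PAFAH1B3 protein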
LYPLA1 inh = counter-screen for PME1 inhibitors: inhibitors of human LYPLA1 | O75608 | recombinant LYPLA1, FP-Rh probe fluorescence polarization | inhibition, % at 5.9 µM | hit rate 0.16% among 320,000;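 active = inhibition above the mean of all tested compounds plus 3 SD, set per campaign, cut at about 14% in these data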;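 note: inhibitors block serine hydrolase probe labeling of LYPLA1 so polarization falls; 0% = enzyme with DMSO and 100% = wells lacking LYPLA1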
PAD4 FP inh = blocks human protein arginine deiminase 4. recombinant PAD4, RCA probe fluorescence polarization. inhibition, % at 6.36 µM. hit rate 0.41% among 330,000. Q9UM07;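 active = percent inhibition above a cutoff equal to the mean of all tested compounds plus 3 SD, cut at about 15% in these data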;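 note: 0% = PAD4 with RCA probe and DMSO and 100% = probe without PAD4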
GSTO1 counter = GSTO1 inhibition, counter-screen for RBBP9 inhibitors | P78417 | recombinant GSTO1, activity-based probe fluorescence polarization | inhibition, % at 5.96 µM | hit rate 1.1% among 300,000 | AID 1974;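 active = inhibition above the campaign mean inhibition plus 3 SD, cut at about 35% in these data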;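 note: 0% = GSTO1-1 with DMSO and 100% = wells lacking GSTO1-1 enzyme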
The depositor's hits bear a star; . = not tested or not shown. This is a subset. The share of hits here may be higher or lower than overall.

SMILES	LYPLA2 inh	PAFAH1B3 inh	LYPLA1 inh	PAD4 FP inh	GSTO1 counter
CCN(CC)S(=O)(=O)c1cccc(C(=O)OCC(=O)Nc2ccccc2OC(F)F)c1	4	3	3	-3	0
O=c1oc(-c2ccccc2NS(=O)(=O)c2ccc(F)cc2)nc2ccccc12	-1	7	-2	-6	-240
Cc1ccc(C(=O)OCC(=O)NC2CCCCC2)s1	0	4	-4	2	-9
Cc1cc(Br)c(NC(=O)COC(=O)C2CC2C)c(Br)c1 (stereo unspecified)	3	6	-5	-8	3
O=C(COC(=O)/C=C/c1ccc(Cl)cc1)Nc1cccc(S(=O)(=O)NC2=NCCCCC2)c1	.	2	.	0	.
O=C(COC(=O)/C=C/c1ccccc1Cl)NCc1ccco1	5	3	0	1	0
Cc1c(C)c2c(OCC(=O)N[C@@H](C)C(=O)O)cc3c(c2oc1=O)CCC(C)(C)O3	5	5	3	2	-3
O=c1c2cc(Cl)ccc2oc2nc3n(c(=O)c12)CCCS3	2	3	-2	0	-19
CC1CCCCC1NC(=O)COC(=O)c1ccc2c(c1)OCCO2 (stereo unspecified)	6	-2	1	-6	.
Nc1c(C(=O)NC2CCCCC2)nsc1C(=O)OCC(=O)NC1CCCCC1	-2	4	-4	-3	-3
O=c1cc(-c2ccccc2)nc2nc(COc3ccccc3)[nH]n12	-7	-2	2	-2	-14
C/C(=C\C(=O)c1ccccc1)Nc1ccc(Cl)c(Br)c1	4	-4	-1	-3	-3
C/C(=C\C(=O)c1ccc(Br)cc1)Nc1cccc(Cl)c1	3	-5	-7	0	6
O=C1c2ccccc2S(=O)(=O)c2cc(C(=O)N3CCN(c4c(Cl)cncc4Cl)CC3)ccc21	9	9	2	3	-33
CC(=O)c1ccc(NC(=S)Nc2ccc(Br)c(Cl)c2)cc1	0	-18	-8	0	-12
Cc1cc(C)n(-c2ccc(C(=O)OCC(=O)NCc3ccco3)cc2)n1	2	4	3	2	0
CCCCC1=CC2=CC(=O)C(C)(OC(=O)CCc3ccccc3)C(=O)C2=CO1 (stereo unspecified)	1	-1	0	-2	13

Reformatted with bars between the fields: entries from further up
Structure | LYPLA2 inh | PAFAH1B3 inh | LYPLA1 inh | PAD4 FP inh | GSTO1 counter
C/C(=C\C(=O)c1ccc(Br)cc1)Nc1cccc(Cl)c1 | 3 | -5 | -7 | 0 | 6
O=C1c2ccccc2S(=O)(=O)c2cc(C(=O)N3CCN(c4c(Cl)cncc4Cl)CC3)ccc21 | 9 | 9 | 2 | 3 | -33
CC(=O)c1ccc(NC(=S)Nc2ccc(Br)c(Cl)c2)cc1 | 0 | -18 | -8 | 0 | -12
Cc1cc(C)n(-c2ccc(C(=O)OCC(=O)NCc3ccco3)cc2)n1 | 2 | 4 | 3 | 2 | 0
CCCCC1=CC2=CC(=O)C(C)(OC(=O)CCc3ccccc3)C(=O)C2=CO1 (stereo unspecified) | 1 | -1 | 0 | -2 | 13

A draw from above in order of molar mass, falling:
SMILES	LYPLA2 inh	PAFAH1B3 inh	LYPLA1 inh	PAD4 FP inh	GSTO1 counter
O=C(COC(=O)/C=C/c1ccc(Cl)cc1)Nc1cccc(S(=O)(=O)NC2=NCCCCC2)c1	.	2	.	0	.
Nc1c(C(=O)NC2CCCCC2)nsc1C(=O)OCC(=O)NC1CCCCC1	-2	4	-4	-3	-3
Cc1ccc(C(=O)OCC(=O)NC2CCCCC2)s1	0	4	-4	2	-9
